High-throughput results (PubChem BioAssay)
Bfl-1 A1 inh – caspase 3/7 activation in MEF A1-2A-BIM cells, primary screen, A1 inhibitor project, cell-based, luminescence, HTS; Caspase-Glo 3/7 luminescence, 3 h; percent of clofoctol response, vehicle zero; caspase activation, % (no concentration beside the values); hit rate 0.066% among 330,000; AID 2462, 2010;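 active = over half of replicate activation scores above 10%, or exactly half above 10 with the replicate mean above 10; inconclusive = replicate mean below 10 yet half the replicates above 10; inactive = over half of replicates below 10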;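 note: wells of about 30 µL received 50 nL stock; many hits fall short of the cut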
AF4-AF9 inh – inhibitors of AF4 peptide binding to AF9, primary screen, biochemical, AlphaScreen, biotin-AF4 peptide, FLAG-AF9, single point; Protein AF-9 (Homo sapiens), P42568; hit rate 0.47% among 350,000; inhibition, % at 10 µM;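 active = every replicate reaching a set inhibition limit, whatever the replicate mean, cut at about 25% in these data; inconclusive = mean inhibition reaches that limit but some replicates miss it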;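 note: 0% = plate neutral control median and 100% = total signal loss; the record names both 10 and 1 µM as test concentration; the first replicate is given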
Target sequence (P42568 whole entry, looked up): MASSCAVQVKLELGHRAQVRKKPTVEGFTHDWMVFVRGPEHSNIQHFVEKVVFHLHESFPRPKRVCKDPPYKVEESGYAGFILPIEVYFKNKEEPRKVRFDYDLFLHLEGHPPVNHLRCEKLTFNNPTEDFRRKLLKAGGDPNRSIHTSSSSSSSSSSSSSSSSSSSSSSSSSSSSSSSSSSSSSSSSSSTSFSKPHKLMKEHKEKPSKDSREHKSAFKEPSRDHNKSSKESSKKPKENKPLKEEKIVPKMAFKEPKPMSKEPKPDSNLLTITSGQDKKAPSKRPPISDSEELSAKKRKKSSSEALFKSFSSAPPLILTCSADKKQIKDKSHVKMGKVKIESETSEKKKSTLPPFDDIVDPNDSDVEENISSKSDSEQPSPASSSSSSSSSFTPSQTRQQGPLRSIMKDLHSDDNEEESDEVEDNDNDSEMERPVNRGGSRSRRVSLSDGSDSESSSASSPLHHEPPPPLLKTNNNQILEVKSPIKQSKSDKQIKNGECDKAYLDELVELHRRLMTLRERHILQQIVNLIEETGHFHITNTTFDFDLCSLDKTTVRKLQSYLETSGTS
T cruzi repl – inhibitors of intracellular T. cruzi growth, primary screen, luminescence, NIH3T3 host cells; T. cruzi beta-gal in NIH3T3, 90 h; inhibition, % (no concentration beside the values); hit rate 1.4% among 300,000; AID 1885, 2009;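 active = mean inhibition across valid replicates above about 55%, limit read from the data; inconclusive = mean below that limit but half or more replicates reach it; inactive = mean below it, under half of replicates reach it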;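 note: signal also drops with host cell toxicity which is not excluded here; 0% = plate median of DMSO wells and 100% = zero luminescence signal; higher percent means less beta-gal luminescence so fewer parasites; stock transfer was 50 nL into about 50 µL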
Beta cell apopt – inhibitors of cytokine-induced beta cell apoptosis, primary screen, luminescence. INS-1E cytokine-induced death, ATP luminescence, 48 h; percent of positive-control rescue, neutral wells zero. protection from apoptosis, % (no concentration beside the values). hit rate 0.8% among 300,000. AID 435005, 2010;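 active = all replicates at 75% or more, or half of them and the mean; inconclusive = half reach 75% but not the mean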;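 note: 0% = cytokine-treated negative control wells and 100% = positive control rescue; higher means more ATP so stronger rescue from cytokine killing; wells of about 40 µL received 100 nL stock; the first replicate is given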
RanGTP-Imp inh – inhibitors of RanGTP-importin-beta interaction, primary screen, biochemical, FRET, CFP-Ran, YFP-importin-beta, homogeneous; inhibition, % (no concentration beside the values); hit rate 1.1% among 300,000; cell-free CFP-Ran/YFP-importin-beta FRET ratio;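 active = most replicates above 15%; inconclusive = exactly half above 15%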;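 note: 0% = DMSO wells and 100% = Ran loaded with GDP instead of GTP; wells of about 40 µL received 100 nL stock; the first replicate is given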
Calb FLC – C. albicans growth inhibition with fluconazole, primary screen, CaCi-2 strain, Alamar Blue fluorescence; C. albicans CaCi-2 (fluconazole-resistant clinical isolate) + fluconazole, 48 h; growth inhibition, % (test concentration not listed); hit rate 0.57% among 300,000; AID 1979, 2009;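 active = most replicates above 75%; inconclusive = exactly half above 75%; inactive = most below 75%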;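 note: all wells also contain fluconazole at 8 µg/ml as a sub-toxic cotreatment; 0% = median of DMSO wells and 100% = median of geldanamycin control wells; wells of about 8 µL received 7.5 nL stock; the first replicate is given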
Vif TR-FRET – inhibitors of Vif binding to APOBEC3G peptide, primary screen, biochemical, TR-FRET, GST-Vif 1-94, biotin-A3G peptide, dose response retest (AID 1117319); Virion infectivity factor (Human immunodeficiency virus type 1 group M subtype B (isolate …; inhibition, %, or IC50 in µM where a hit was titrated; hit rate 0.57% among 260,000; TR-FRET GST-Vif / biotin-A3G peptide binding; higher % means a stronger effect; test concentration not given here; strong numbers were not always called active;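 active = above the screen mean plus three standard deviations and confirmed in dose response; inconclusive = results disagree or hit not tested in dose response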;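 note: Vif residues 1-94 fused to GST binding biotinylated APOBEC3G peptide 110-148; 0% = full assay without inhibitor and 100% = GST in place of GST-Vif; retest series ran down from 100 µM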
LANA-H2A inh – blockers of LANA interaction with H2A/H2B – biochemical, FP readout, HTS, primary screen; Protein LANA1 (Human herpesvirus 8 type P (isolate GK18)), Q9QR71; cell-free LANA-H2A/H2B peptide, fluorescence polarization; inhibition, % (no concentration beside the values); hit rate 0.6% among 320,000; AID 2629, 2010; in the data active = inhibition mostly above about 10%, no sharp cut-off; inactive = mostly below about 6.7%;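 note: stock transfer was 7.5 nL into about 10 µL; 0% = median of vehicle wells and 100% = median of positive control wells; one replicate is shown; the record names a cut of 25% in any replicate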
Active calls of the source: *; u = inconclusive; x = not tested or not shown; & = joins results of further samples. This is a random part of the collection; any-hit rate near 4.3%.

SMILES	Bfl-1 A1 inh	AF4-AF9 inh	T cruzi repl	Beta cell apopt	RanGTP-Imp inh	Calb FLC	Vif TR-FRET	LANA-H2A inh
CCSc1nc(-c2ccccc2)c(-c2ccccc2)n1CC(O)CO (stereo not given)	-0.5	8.1	0	2	u	6	-5%	-2.2
O=C(CC(Nc1ccc(F)cc1)c1ccccc1)c1ccccc1 (stereo not given)	0.0	x	2	-12	-2.6	-34	x	-2.3
C/C(=N\Nc1ncc(Cl)cc1Cl)c1ccc(N2CCOCC2)cc1	-0.7	1.5	-13	-7	-3.6	-2	x	-3.1
COC(=O)CN1C(=O)C(O)(CC(=O)c2ccc(Br)cc2)c2ccccc21 (stereo not given)	-0.2	6.8	-18	-6	0.7	-12	18%	1.2
COC(=O)C1CCN(C(=O)C2CCN(C(=O)[C@H](C)NS(=O)(=O)c3ccc(C)cc3)CC2)CC1	0.2	-1.6	0	-2	1.2	-4	x	2.6
CCn1nc(C)c(NC(=O)c2ccc(Br)o2)c1C	0.2	-1.2	-9	-4	3.2	u	-5%	-1.3
COc1ccc(NC(=O)c2cc(S(=O)(=O)N3CCc4ccccc43)cn2C)c(OC)c1	0.3	x	10	-8	2.1	5	x	-1.0
O=C(O)C1CCCCC1C(=O)N1CC=C(c2ccccc2)CC1 (stereo not given)	-1.0	x	-1	-4	0.4	8	14%	2.4
CN1CCN(CCCn2cnc3c(=O)oc4ccccc4c32)CC1	0.1	x	-8	-5	-2.5	-6	14%	2.3
Cc1ccc(OCC(=O)NNC(=O)c2cccnc2)cc1C	1.3	-2.6	-7	0	1.8	u	x	-7.9
CCOC(=O)C1=C(C)NC(C)=C(C(=O)OCC)C1C(=O)OCC(=O)N1CCCCC1CC (stereo not given)	0.6	-8.1	12	-2	1.4	u	-1%	4.3
O=C(CN1C(=O)S/C(=C\c2ccccc2)C1=O)NC1CCS(=O)(=O)C1 (stereo not given)	-0.4	1.9	-20	0	2.4	3	x	-0.8
O=S(=O)(Nc1ccc(Cl)cn1)c1cccs1	0.5	0.7	13	-8	0.2	16	x	0.0
S=C(NCC1CCCO1)NC12CC3CC(CC(C3)C1)C2 (stereo not given)	-0.3	-0.4	4	4	-0.8	-22	x	-0.9
CNCCCc1[nH]nc(N)c1C#N	0.5	x	-5	0	-0.3	8	4%	-2.5

Complete entries as entered above. Values in the order: Bfl-1 A1 inh, AF4-AF9 inh, T cruzi repl, Beta cell apopt, RanGTP-Imp inh, Calb FLC, Vif TR-FRET, LANA-H2A inh
COC(=O)C1CCN(C(=O)C2CCN(C(=O)[C@H](C)NS(=O)(=O)c3ccc(C)cc3)CC2)CC1 across the screens: 0.2, -1.6, 0, -2, 1.2, -4, x, 2.6
S=C(NCC1CCCO1)NC12CC3CC(CC(C3)C1)C2 (stereo not given) across the screens: -0.3, -0.4, 4, 4, -0.8, -22, x, -0.9
O=C(O)C1CCCCC1C(=O)N1CC=C(c2ccccc2)CC1 (stereo not given) across the screens: -1.0, x, -1, -4, 0.4, 8, 14%, 2.4
COc1ccc(NC(=O)c2cc(S(=O)(=O)N3CCc4ccccc43)cn2C)c(OC)c1 across the screens: 0.3, x, 10, -8, 2.1, 5, x, -1.0
CCOC(=O)C1=C(C)NC(C)=C(C(=O)OCC)C1C(=O)OCC(=O)N1CCCCC1CC (stereo not given) across the screens: 0.6, -8.1, 12, -2, 1.4, u, -1%, 4.3

Continuation.
SMILES	Bfl-1 A1 inh	AF4-AF9 inh	T cruzi repl	Beta cell apopt	RanGTP-Imp inh	Calb FLC	Vif TR-FRET	LANA-H2A inh
CC1CCCC(NCC(O)COC(c2ccc(F)cc2)c2ccc(F)cc2)C1C (stereo not given)	0.1	8.9	21	44	-1.9	8	x	-1.2
CC(C)Nc1nc(NC(C)C)nc(SCCOC(=O)Nc2ccc(Cl)cc2Cl)n1	-0.8	0.2	41	7	4.7	-8	14%	-0.2
CCOC(=O)CNc1nc(Cl)c(C#N)s1	0.4	0.1	-8	0	0.9	-20	x	-0.4
CSc1nc(C)c(C(=O)C[n+]2ccc(C)cc2)cc1C#N	-0.1	-0.3	-3	-5	-0.2	25	4%	-3.3
COc1ccc(C(=O)O/N=C(\N)c2ccc(OC)c(OC)c2)cc1	-0.9	-2.6	30	-3	1.3	0	-10%	-1.8
Nn1c(SCC(=O)Nc2ccccc2F)nnc1C1CCCCC1	0.4	-1.2	-1	-7	2.1	u	x	10
COc1ccccc1Oc1c(C)oc2cc(OC(=O)c3ccco3)ccc2c1=O	0.5	x	x	-11	x	x	2%	2.7
Cc1cccc(OCC(=O)NC(=S)Nc2ccccc2N2CCOCC2)c1	1.4	0.7	9	x	2.5	14	4%	0.2
Cc1nnc(SC(C)C(=O)N2CCc3ccccc32)s1 (stereo not given)	0.5	x	-8	-3	-1.0	23	-6%	5.3
CC(C)(C)c1ccc(C(=O)N/N=C/c2ccccn2)cc1	-0.9	4.2	12	10	0.8	21	-1%	3.2
C[C@H](NC(=O)c1nc[nH]c1C(=O)N[C@@H](Cc1ccccc1)C(=O)OC(C)(C)C)c1ccccc1	0.3	4.3	32	-9	u	11	0%	-3.5
COc1ccc(CN(C)CC(=O)c2c(N)n(Cc3ccccc3)c(=O)n(C)c2=O)c(OC)c1	0.7	x	59*	-3	5.6	-1	0%&-6%	4.3
Cc1cc(C)cc(-n2ncc3c2CCCC3NC(=O)CN2CCCCC2=O)c1 (stereo not given)	0.5	-17	-12	-5	1.2	2	x	0.4
CCCN1C(=O)C(=O)N(CC(=O)c2cc(C)n(C3CC3)c2C)C1=O	0.1	0.7	x	-1	x	x	-5%	-1.9
CCCOc1ccc(CC(=O)NCc2ccco2)cc1OC	-0.4	x	-2	-8	2.6	-17	15%	-0.2
CC(C)=CC(=O)OCC(=O)Nc1ccc(Cl)cc1	-0.7	-1.8	-3	3	3.2	-21	-9%	-2.9
O=C(c1cc[n+]([O-])cc1)N1CCc2c([nH]c3ccccc23)C1c1ccccc1Cl (stereo not given)	-0.6	3.7	-9	2	1.4	31	16%	1.5
COc1ccc(NC(=O)c2c(C(F)(F)F)nn(C)c2SCc2ccccc2)cc1	-0.3	x	27	-1	3.8	28	4%	-0.5
COC(=O)c1ccc(CN2CCC(Oc3cccc(C(=O)N4CCOCC4)c3)CC2)cc1	0.2	2.4	13	5	1.5	-25	2%	-0.6
Cc1cc2oc(=O)cc(C)c2cc1NC(=O)CCC(=O)O	0.8	0.0	-9	2	2.2	-6	-8%	0.6
CCc1cccc(NC(=O)CSCc2cc(=O)[nH][nH]2)c1	-1.0	x	2	-5	11	-10	15%	-15
Cc1ccc(S(=O)(=O)N2CCCC(C(=O)NCC3COCCO3)C2)cc1 (stereo not given)	0.2	x	18	-2	-8.4	-4	-4%	-0.5
Cn1cc(S(=O)(=O)N2CCN(c3cccc(Cl)c3)CC2)c(=O)n(C)c1=O	1.1	-9.6	-1	-4	2.8	-7	x	-1.7
CCN(CC)C(=O)c1[nH]cnc1C(=O)N[C@@H](Cc1ccccc1)C(=O)OCc1ccccc1	0.2	4.1	-1	1	3.5	-3	x	-4.2
CCCCN(C(=O)/C=C/c1ccccc1)C1CCS(=O)(=O)C1 (stereo not given)	0.4	-33	5	-3	-1.4	-5	1%	1.2
CC1=C(C)C(=O)N(c2ccc(C(=O)O)cc2)C1=O	0.1	x	-11	-6	2.7	11	0%	4.8
CC(NC(=O)c1ccc(Br)cc1Br)c1ccccc1 (stereo not given)	-0.4	-10.0	3	6	3.7	-23	-9%	-0.4
Cc1c(C(=O)N2CCCCCC2)c(S(=O)(=O)Nc2ccc(F)cc2)c(C)n1C	1.0	1.1	17	-3	u	-1	x	4.5
CC(C)N1C(=O)c2ccccc2N(Cc2ccccc2)S1(=O)=O	1.2	-2.3	x	-8	-1.4	-2	0%	-2.4
CC1CCCCN1C(=O)c1c([N+](=O)[O-])cnn1C (stereo not given)	-0.2	-9.5	-9	0	-3.6	1	-6%	-1.5

Among those listed so far, two have a tert-butyl group:
SMILES	Bfl-1 A1 inh	AF4-AF9 inh	T cruzi repl	Beta cell apopt	RanGTP-Imp inh	Calb FLC	Vif TR-FRET	LANA-H2A inh
CC(C)(C)c1ccc(C(=O)N/N=C/c2ccccn2)cc1	-0.9	4.2	12	10	0.8	21	-1%	3.2
C[C@H](NC(=O)c1nc[nH]c1C(=O)N[C@@H](Cc1ccccc1)C(=O)OC(C)(C)C)c1ccccc1	0.3	4.3	32	-9	u	11	0%	-3.5

Continued:
SMILES	Bfl-1 A1 inh	AF4-AF9 inh	T cruzi repl	Beta cell apopt	RanGTP-Imp inh	Calb FLC	Vif TR-FRET	LANA-H2A inh
COc1ccc(N2CCN(S(=O)(=O)c3cccc4cccnc34)CC2)cc1	0.7	6.2	6	x	-3.6	5	13%	4.0
CCOc1ccc(-c2nnc(NC(=O)CCCOc3cccc(C)c3)o2)cc1	0.4	x	3	-2	-5.4	-2	5%	-2.5
Cc1ccc(N=Nc2c(=O)[nH]n3c(=O)cc(C)[nH]c23)cc1	-0.4	x	-3	5	-16	-2	u	-3.7
C/C=C(\C)C(=O)OC(C)(C)[C@@H]1Cc2cc3ccc(=O)oc3cc2O1	0.0	-45	x	-2	x	x	x	0.3
Cc1ccc(N(C(=O)CNC(=O)c2ccco2)C(C(=O)NC2CCCC2)c2ccncc2)cc1C (stereo not given)	0.2	-3.5	-8	-3	0.6	-13	x	2.8
O=C(Nc1ccc(F)c(F)c1)c1ccco1	-2.3	-4.2	-35	-3	7.5	-20	-3%	0.5
CCOC(=O)/C(=N\Nc1ncnc2ccccc12)c1ccc(OC)cc1	-8.9	-0.5	-9	9	1.6	-8	x	1.1
Cc1cccc2sc(NC(=O)CN(C)S(=O)(=O)c3ccc(Br)s3)nc12	1.4	x	18	7	-1.8	0	31%	2.9
CCOc1ccccc1C(=O)N(Cc1sccc1C)C1CCS(=O)(=O)C1 (stereo not given)	0.6	-1.6	7	-5	2.5	-10	7%	0.8
CNC(=S)N1CCN(c2nc(-c3ccc(Cl)cc3)cs2)CC1	-0.7	-0.9	-6	-7	-3.2	-2	x	-8.8
Cc1ccc(S(=O)(=O)N(C)C)cc1NC(=O)C(C)OC(=O)C1CCCC1 (stereo not given)	0.9	-0.3	-5	-1	0.0	-5	2%	3.4
CC1(C)C(=O)Nc2ccccc2N1C(=O)COC(=O)Cc1ccccc1F	1.9	0.9	x	0	x	x	4%	5.7
C=CCn1c(SCc2nc3ccccc3[nH]2)nnc1-c1ccccn1	0.5	x	11	-4	-1.4	24	-5%	1.0
COC(=O)C[C@H]1c2cc(F)ccc2S(=O)(=O)N1c1ccccc1	-0.2	0.5	-15	1	3.1	4	x	-0.6
